# Assay outcomes: PubChem BioAssay, Fisher Drug Discovery Resource Center
# NPYLR7 ag – agonists of mosquito NPYLR7 receptor, primary screen, cell-based, Aedes aegypti, calcium fluorescence, mosquito biting behavior; activation, % at 10 µM; AID 1259423, 2018; HEK293T NPYLR7/Galpha15, GCaMP6s calcium fluorescence; Aedes aegypti neuropeptide Y-like receptor 7 (NPYLR7); 270,000 tested, 0.15% active; in the data active means activation above about 40%;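 further: 0% = vehicle and 100% = reference agonist at the receptor; some compounds past the cut are filed as inactive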
# NPYLR7 ag max-min – second read-out of NPYLR7 ag, no call of its own (marks repeat the call); activation, %; measured here: Max-Min RFU normalised activation; some inactives read as strong as hits;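 span of the calcium signal over five minutes; 0% = vehicle and 100% = native peptide agonist; compound fluorescence can raise it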
# * = called active by the depositor; & = joins results of further samples.
SMILES,NPYLR7 ag,NPYLR7 ag max-min
CC(C)(C)CC(C)(C)c1ccc(O)c(Cc2ccc(Cl)cc2Cl)c1,-4,-11
O=C(NCCCN1CCCC1=O)c1cn(CC2CCCCC2)nn1,10,5
COCCCN(Cc1ccc(OC)cc1)Cc1ccc(C(O)(CC2CCC2)CC2CCC2)o1,16,16
COCCCN(CC(=O)N(Cc1ccc2c(c1)OCO2)Cc1cccs1)C(=O)Nc1ccc(OC)cc1,24,25
Cc1cc(C)c(S(=O)(=O)N2CCN(Cn3cccnc3=S)CC2)c(C)c1,-1,-3
CCOCCn1c(CN2CC(C)OC(C)C2)nc2c1c(=O)n(C)c(=O)n2C (stereo not given),0,17
Cc1cc(C(=O)CN2CCC(C)CC2)c(C)n1-c1ccccc1F,9,5
O=C(CN1C(=O)c2ccccc2C1=O)Nc1cccc(-c2nc3ccccc3c(=O)o2)c1,1,-4
COc1ccc(C(=O)N2CC[C@H](CO)[C@H](O)C2)c(C)c1,2,2
Cc1ccc2c(c1)C(=O)NC1(CCN(S(=O)(=O)C[C@]34CCC(CC3=O)C4(C)C)CC1)N2,6,24
O=C(Nc1ccc(F)cc1)c1cc2n(n1)CCN(Cc1cccc(C(F)(F)F)c1)C2=O,17,22
C=CCN(Cc1ccc(F)cc1)C(=O)Cn1nc(C)c(C)c1C,-3,-6
O=C(CCC1CCCC1)NNC(=O)C1COc2ccccc2O1 (stereo not given),7,11
O=C(c1ccc(C(F)(F)F)cc1)N1CCN(C(C(=O)N2CCOCC2)C2CCCC2)CC1 (stereo not given),1,5
CCN(CC)C1=C(c2c(C)[nH]n(-c3ccc(OC)cc3)c2=O)C(=O)N(CC2CCCO2)C1=O (stereo not given),7,12

# Entries listed so far containing an aryl methoxy group (4):
SMILES,NPYLR7 ag,NPYLR7 ag max-min
COCCCN(Cc1ccc(OC)cc1)Cc1ccc(C(O)(CC2CCC2)CC2CCC2)o1,16,16
COCCCN(CC(=O)N(Cc1ccc2c(c1)OCO2)Cc1cccs1)C(=O)Nc1ccc(OC)cc1,24,25
COc1ccc(C(=O)N2CC[C@H](CO)[C@H](O)C2)c(C)c1,2,2
CCN(CC)C1=C(c2c(C)[nH]n(-c3ccc(OC)cc3)c2=O)C(=O)N(CC2CCCO2)C1=O (stereo not given),7,12

# (cont.)
SMILES,NPYLR7 ag,NPYLR7 ag max-min
O=C(c1ccoc1)N1CCC(CO)(CCc2ccccc2)CC1,-3,3
CC(=O)c1sc(=Nc2cccc(C)c2C)n(CCO)c1C,-8,-11
COCCNC(=O)c1cc(NC(=O)c2ccc(Cl)c([N+](=O)[O-])c2)ccc1N1CCC(C)CC1,18,24
C=CCOC(=O)C1=C(C)Nc2nc(SCC=C)[nH]c(=O)c2C1c1ccc(OC)c(OC)c1 (stereo not given),4,1
CC(C)(C)NC(=O)CN1CCCN(C(C(=O)N2CCOCC2)c2ccccc2)CC1 (stereo not given),-4,-5
O=C(c1ccc2nc(-c3ccc(O)cc3)[nH]c2c1)N1CC=CCC1,0,0
CCc1ccc(S(=O)(=O)Nc2ccn(C)n2)cc1,1,16
C#CCN(C(=O)C(CC)OC1CCCCC1)c1nccs1 (stereo not given),1,1
Cc1cccc(C(C2Sc3nc(C)nn3C2=O)N2CC(C)OC(C)C2)c1 (stereo not given),3,2
CS(=O)(=O)Nc1ccc(C2=NN(S(C)(=O)=O)C(c3ccco3)C2)cc1 (stereo not given),15,23
CCN(CC)C(=O)CSc1n[nH]c(=S)s1,-3,-4
CCOC(=O)c1ccc(NC(=O)N2CCN(C(=O)c3cc4ccoc4n3Cc3cccc(OC)c3)CC2C)cc1 (stereo not given),3,12
COCCCN(CC(=O)N(CCc1ccc(OC)c(OC)c1)Cc1sccc1C)C(=O)Nc1cccc(OC)c1,7,12
Oc1oc(-c2cccc3ccccc23)nc1C=Nc1ccccc1Br,-1,-7
CCN(CCNC(=O)Cc1ccc(NC(C)=O)cc1)c1cccc(C)c1,7,3
CCOC(=O)C1(C/C=C/c2ccccc2)CCCN(C(=O)c2cccnc2SC)C1 (stereo not given),1,3
O=C(CCN1CCN(C(=O)/C=C/c2cc(Cl)c3c(c2)OCO3)CC1)NC1CC1,1,0
O=S(=O)(c1ccc2ccccc2c1)N1CCN(c2cccc(C(F)(F)F)c2)CC1,-2,-5
COc1cccc(-c2nnn(CC(O)CN3CCOCC3)n2)c1 (stereo not given),3,1
CC(C)N(CC(=O)N(Cc1ccccc1)Cc1cccn1Cc1ccccc1)C(=O)c1ccc(-c2ccccc2)cc1,7,4
COc1ccc(CN=C2Nc3nc(C)cc(=O)n3C(c3ccccc3)N2)cc1 (stereo not given),3,19
CCC(C(=O)NCc1ccco1)n1c(=O)n(-c2cccc(OC)c2)c(=O)c2ccc(Cl)cc21 (stereo not given),4,16
CCOC(=O)N1CCC(Nc2c(NC(C)CC)c(=O)c2=O)CC1 (stereo not given),7,7
COc1ccc(C2CC(c3ccc(C)cc3C)=NN2C(=O)CN2CCN(c3ccccc3F)CC2)c(OC)c1 (stereo not given),-2,11
CCS(=O)(=O)c1ccccc1NC(=O)C1CCCCC1,3,3
CCOc1ccc(NC(=O)NCc2nnnn2C2CCCCC2)cc1,2,0
Cc1cccn2c(CNC3CCCc4ccccc43)c(C(=O)N3CCOCC3)nc12 (stereo not given),-7,-13
CCc1ccc2oc3c(c(=O)c2c1)C(c1ccccc1)N(c1cc(C)on1)C3=O (stereo not given),2,1
CCOC(=O)c1cc(-c2cccc(NC(=O)c3oc4ccccc4c3C)c2)n(-c2cccc(C)c2)n1,4,-1
NC[C@@H]1O[C@H](O[C@@H]2[C@@H](CO)OC(O[C@@H]3[C@@H](O)[C@H](N)C[C@H](N)[C@H]3O[C@H]3O[C@H](CO)[C@@H](O)[C@H](O)[C@H]3N)[C@@H]2O)[C@H](N)[C@@H](O)[C@@H]1O (stereo not given in full),-13,-16

# Overlap with the part before: 3 entries; new compounds follow.
SMILES,NPYLR7 ag,NPYLR7 ag max-min
CCc1ccc2oc3c(c(=O)c2c1)C(c1ccccc1)N(c1cc(C)on1)C3=O (stereo not given),2,1
CCOC(=O)c1cc(-c2cccc(NC(=O)c3oc4ccccc4c3C)c2)n(-c2cccc(C)c2)n1,4,-1
NC[C@@H]1O[C@H](O[C@@H]2[C@@H](CO)OC(O[C@@H]3[C@@H](O)[C@H](N)C[C@H](N)[C@H]3O[C@H]3O[C@H](CO)[C@@H](O)[C@H](O)[C@H]3N)[C@@H]2O)[C@H](N)[C@@H](O)[C@@H]1O (stereo not given in full),-13,-16
COC(=O)c1cc2c(=O)n(-c3ccccc3F)ccc2nc1C,5,4
CC1=NN(S(=O)(=O)c2cccc([N+](=O)[O-])c2)B(O)c2ccsc21,3,2
O=C(NCc1ccsc1)c1ccc(-c2cc(-c3cccc4ccccc34)[nH]n2)cc1,-2,0
O=S(=O)(NN=Cc1ccncc1)c1ccc(Br)cc1,-2,-8
CCc1cc2c(SCC(=O)Nc3cc(C(C)(C)C)no3)ncnc2s1,2,10
N#Cc1c(Cl)nsc1NC1CC1c1cccc(Cl)c1 (stereo not given),2&-9,1&-9
N#Cc1ccccc1C(=O)N1CCN(Cc2ccc(-c3noc(-c4ccco4)n3)cc2)CC1,4,2
CC(C)(C)P(=Nc1cc(Cl)ccc1Cl)(N1CCCCC1)N1CCCCC1,9,6
Cc1cc(C)nc(NCCCn2nccc2C2CC2)n1,-2,2
CC(C)c1noc(CCCC(=O)N2CCCN(CC3CCCO3)CC2)n1 (stereo not given),9,7
COc1ccc(/C=C2/SC(=S)N(NC(C)=O)C2=O)cc1OC,-1,-5
CC(C)c1cc(C(C)C)c(S(=O)(=O)Oc2cccc3cccnc23)c(C(C)C)c1,2,-6
N#Cc1cccc(OC2CC3CCC(C2)N3C(=O)c2ccc(CSc3cccc4cccnc34)cc2)c1 (stereo not given),-7,-8
O=C1COCc2ccc(-c3ccccc3)cc2N1CCN1CCOCC1,11,4
Cc1onc(-c2ccccc2Cl)c1C(=O)N1CC(C)CC(C)C1 (stereo not given),4,4
CCOC(=O)c1c(NC(C)=O)sc(C(C)=O)c1C,-7,-9
CC(C)Oc1nc(-c2cccc(F)c2)n(-c2ccc(NC(=O)CCl)cc2)n1,14,22
CCOC(=O)C(Cc1ccc(Cl)cc1)NC(=O)c1c(C)oc(C)c1-c1ccc(Cl)cc1 (stereo not given),5,3
COc1ccc(CCCN(C)C(=O)c2cccc3c2OC(C)C3C)cc1OC (stereo not given),-3,-3
O=c1cc(CNc2ccccc2F)nc2ccc(Br)cn12,7,4
NS(=O)(=O)c1ccc(OCCN2CCN(c3ccccc3F)CC2)cc1,-4,-5
COc1cc2c(cc1OC)CN(S(=O)(=O)c1ccc(OC)c(N3CCN(C(=O)c4ccno4)CC3)c1)CC2,4,-2
Cn1c(COc2ccccc2Br)nc2ccccc21,-1,-1
O=C(Nc1ccccc1)c1cccc(S(=O)(=O)NCc2ccco2)c1,-7,-15
Cn1ccnc1SCc1cc(=O)c(OC(=O)c2ccc(Br)cc2)co1,3,-1
CNS(=O)(=O)c1cccc(C(=O)N(C)Cc2ccc(C(C)C)cc2)c1,-2,-5
CCOC(=O)c1ccc(Sc2nc(C)cs2)nc1,5,2
Cc1cc2c(c(=O)o1)C(c1ccco1)C(C#N)C(=N)O2 (stereo not given),6,0
Cc1cc(C(=O)N2CCn3c(C(N)=O)cnc3C2)c(-c2ccccc2)o1,-6,-6
CC1CCCC(NC(=O)C2CCC(CNc3c(N4CCCC4)c(=O)c3=O)CC2)C1C (stereo not given),-3,-1
CCN(CC)C(=O)Oc1ccc2c(ccn2Cc2cc3c(cc2Cl)OCO3)c1-c1ccc(C#N)cc1,11,11
O=C1CCCC(=NNC(=S)NC2CCCCC2)C1,-1,0
CN(C)C(=O)c1cc(-c2ccncc2)n[nH]1,-3,-5
CN(c1ccccc1)N1CC(C(=O)NCCc2cccc(F)c2)CC1=O (stereo not given),0,-5
COCCC1CCCCN1C(=O)c1cc(NC(=O)C2CCCCC2)cc2ncn(CCOC)c12 (stereo not given),-14,-13
COc1ccccc1N1CCN(C(=O)c2cc3n(n2)CCN(Cc2cccc(C(F)(F)F)c2)C3=O)CC1,12,-3
CC(=O)N1CCOCCN(C(C)=O)CCOCC1,9,13
C=CCCC(O)CN(CCC)Cc1c(CC)nn(-c2ccccc2)c1Oc1ccccc1OC (stereo not given),3,2
COc1ccc(Cn2c(-c3ccccc3I)nc3ccccc3c2=O)c(OC)c1,4,2
Cc1cc(NC(=O)Cn2nc(C)c(C)c(C#N)c2=O)no1,3,2
O=c1[nH]nc(CCCN2CCOCC2)n1Cc1cccc(F)c1,8,5
COC(=O)C(C)N(C(=O)c1cc(C2CC2)n(C(C)(C)C)n1)C1CC1 (stereo not given),0,-1
CN(C)CCCN(C(=O)CN1C(=O)CCC1=O)c1nc2c(Cl)cccc2s1,9,8
O=C(NCC(c1ccc(C(F)(F)F)cc1)N1CCOCC1)C1CC2CCC1C2 (stereo not given),9,7
O=C(Nc1ccccc1)c1cc2n(n1)CCCN(C(=O)c1cc3ncccn3n1)C2,0,-6

# An excerpt of these results, with values under each structure.
# Values run as follows: NPYLR7 ag | NPYLR7 ag max-min
COCCC1CCCCN1C(=O)c1cc(NC(=O)C2CCCCC2)cc2ncn(CCOC)c12 (stereo not given)
    -14 | -13
COc1ccccc1N1CCN(C(=O)c2cc3n(n2)CCN(Cc2cccc(C(F)(F)F)c2)C3=O)CC1
    12 | -3
CC(=O)N1CCOCCN(C(C)=O)CCOCC1
    9 | 13
C=CCCC(O)CN(CCC)Cc1c(CC)nn(-c2ccccc2)c1Oc1ccccc1OC (stereo not given)
    3 | 2
COc1ccc(Cn2c(-c3ccccc3I)nc3ccccc3c2=O)c(OC)c1
    4 | 2
Cc1cc(NC(=O)Cn2nc(C)c(C)c(C#N)c2=O)no1
    3 | 2
O=c1[nH]nc(CCCN2CCOCC2)n1Cc1cccc(F)c1
    8 | 5

# The list continues.
SMILES,NPYLR7 ag,NPYLR7 ag max-min
COCCn1c(SCC(=O)N(C)c2ccccc2)nc2c([nH]c3ccccc32)c1=O,2,1
Cc1ccc(C(=O)OCC(=O)NC(=O)NC(C)C)o1,1,1
CCN(CC)C(CNC(=O)c1ccc(S(C)(=O)=O)cc1)c1ccco1 (stereo not given),1,-3
COc1cccc(C2=NN(C(=O)CN3CCC4(CC3)OCCO4)C(c3ccccc3C)C2)c1 (stereo not given),17,12
CCCc1ccc(C(=O)C(C#N)=C(O)c2ccc(OC)nc2)cc1,-1,-3
COc1ccc(N2CCN(CCc3c[nH]c4ccc(NC(=O)Cc5cc(OC)ccc5OC)cc34)CC2)cc1,12,-1
CCc1[nH]n(-c2ccc(Cl)c(Cl)c2)c(=O)c1C1=C(N(CC)CC)C(=O)N(C2CCCCC2)C1=O,25,30
COc1ccc(-n2c(SCc3c(F)cccc3Cl)nc3c(c2=O)SCC3)cc1OC,-5,-1
c1ccc(CCCNc2nc(-c3ccc(Oc4ccccc4)cc3)nc3ccccc23)cc1,0,-2
COCc1ccc(C(=O)N2CCc3c([nH]c4ccccc34)C2c2ccccc2OC)s1 (stereo not given),-8,-9
COCCCN1COc2ccc3c(=O)c(-c4ccccc4)coc3c2C1,13,12
COc1ccc(NC(=S)NCCN2CCOCC2)cn1,8,17
CCN(CC)C(=O)C1(O)C2C=CC=CC2=NC(=O)N1c1ccccc1 (stereo not given),-2,-7
Cc1ccccc1NC(=O)CC(=O)N(C)Cc1csc(-c2ccccc2)n1,5,-2
C=CCNC(=O)Nc1cc(OC)ccc1Br,2,1
Cc1nc2ccc(Cl)cn2c(=O)c1NC(=O)c1ccc(Br)cc1,-3,-2
COc1ccc(C(=O)NCc2nnc(SCC(=O)Nc3cccc(C)c3)n2-c2ccc(Br)cc2)c(OC)c1,-5,3
COc1ccc(-c2cnc3ncnn3c2NCc2cccc(OC)c2OC)cc1,23,11
COc1ccc(NS(=O)(=O)c2ccc(N)cc2)nn1,-10&-6,-8&-7
Cc1ccc(-c2nc(CNC(=O)N3CCOCC3C)co2)cc1 (stereo not given),7,4
Cc1cccc(-n2nc(C(=O)NC3CC3)c(=O)n(Cc3ccccc3F)c2=O)c1,16,13

# These rows are one share of the data; count on the stated rates, not on these rows.
